TRPV1 PAM: HTS Assay for Compounds that Act as Potentiators of the Vanilloid Receptor 1; 320,000 compounds, 0.02% hits; potentiation, % at 8.33 µM; TRPV1-expressing cells, Fluo-8 calcium influx, capsaicin EC20 potentiation; host cell line not named in the record; control for the full effect not named in the record; active means potentiation above 80%; inconclusive means 30% to 80%; inactive means below 30%; also: 0% is about no effect
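TRPV1-expressing cells were cultured overnight at 35.5C and loaded with Fluo-8 calcium dye for 40 to 90 min at room temperature. After a 10 s baseline, compound was added and calcium influx was read kinetically for 3 min (ex 480/em 520 nm).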
D2 potentiator: Beta-Arrestin HTS for Positive Allosteric Modulators of the Human D2 Dopamine Receptor: Potentiators; 360,000 compounds, 0.23% hits; DiscoveRx D2 beta-arrestin cells, luminescence, 90 min; 100% = 57 uM dopamine signal; D(2) dopamine receptor (Homo sapiens), P14416; potentiation, % (no concentration beside the values); active = potentiation of 50% or more; inconclusive = 30% to 50%; inactive = 30% or less;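 also: compound concentration not given in the record; tested on top of an EC20 dose of dopamine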
Target sequence (P14416 whole entry, looked up): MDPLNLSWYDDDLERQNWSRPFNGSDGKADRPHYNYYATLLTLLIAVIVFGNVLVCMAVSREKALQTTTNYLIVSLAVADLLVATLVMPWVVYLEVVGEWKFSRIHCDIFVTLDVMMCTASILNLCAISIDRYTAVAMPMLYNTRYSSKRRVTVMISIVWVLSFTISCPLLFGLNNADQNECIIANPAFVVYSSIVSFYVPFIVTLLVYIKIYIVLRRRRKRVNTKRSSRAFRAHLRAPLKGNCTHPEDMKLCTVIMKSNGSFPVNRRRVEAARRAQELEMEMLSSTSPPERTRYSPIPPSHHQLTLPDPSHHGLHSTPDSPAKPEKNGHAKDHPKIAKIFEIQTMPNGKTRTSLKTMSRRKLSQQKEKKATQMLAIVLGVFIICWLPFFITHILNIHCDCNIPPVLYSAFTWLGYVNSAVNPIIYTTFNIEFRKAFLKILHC
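D2 cells co-treated with compound plus 50 nM dopamine (EC20) for 90 min at 37 deg C to detect potentiation. Beta-arrestin recruitment was read as enzyme-fragment luminescence after 1 h at ambient temperature. Full response was set by 57 uM dopamine.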
TRPML1 agonist: qHTS for Agonists of the Human Mucolipin Transient Receptor Potential 1 (TRPML1); activation, % (no concentration beside the values); AID 624414, 2012; 410,000 compounds, 0.12% hits; TRPML1-expressing cells, Ca2+ dye fluorescence, FDSS; host cell line not named in the record; reference of the full effect not given here; Mucolipin-1 (Homo sapiens), Q9GZU1; in the data active = activation above about 50%; inconclusive = about 30% to 50%; inactive = below about 30%; also: 0% is about no effect; the text of the record puts the active cut at 80%
Target sequence (Q9GZU1 whole entry, looked up): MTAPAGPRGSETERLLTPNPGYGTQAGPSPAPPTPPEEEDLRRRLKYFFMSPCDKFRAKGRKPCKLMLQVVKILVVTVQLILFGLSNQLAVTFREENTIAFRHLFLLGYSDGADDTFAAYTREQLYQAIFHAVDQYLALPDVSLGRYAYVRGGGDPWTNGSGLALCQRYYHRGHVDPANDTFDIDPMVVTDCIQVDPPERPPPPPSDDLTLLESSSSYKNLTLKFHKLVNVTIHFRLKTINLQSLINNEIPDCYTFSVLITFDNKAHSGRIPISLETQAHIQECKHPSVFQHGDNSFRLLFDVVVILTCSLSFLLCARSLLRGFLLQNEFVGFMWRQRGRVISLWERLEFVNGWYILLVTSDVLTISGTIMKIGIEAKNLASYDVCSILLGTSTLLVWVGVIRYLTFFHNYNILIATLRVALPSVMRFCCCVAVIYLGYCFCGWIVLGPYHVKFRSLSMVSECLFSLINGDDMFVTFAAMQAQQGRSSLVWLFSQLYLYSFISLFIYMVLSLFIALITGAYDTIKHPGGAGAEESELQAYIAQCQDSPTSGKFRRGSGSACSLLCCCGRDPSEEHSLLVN
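In this qHTS format, compounds were pin-transferred onto Ca8-dye-loaded TRPML1-DL cells induced with Tet overnight, and intracellular Ca2+ fluorescence was recorded kinetically for 110 s after a 10 s baseline. A subsequent 4uM final 54-4 (EC80) addition followed by a second 110 s read served as the antagonist phase.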
TRPML1 inh: qHTS for Inhibitors of the Human Mucolipin Transient Receptor Potential 1 (TRPML1); Mucolipin-1 (Homo sapiens), Q9GZU1; activity change, negative = inhibition, % (concentration not given with the values); TRPML1-inducible cells, Ca2+ dye fluorescence, FDSS; stronger effect = lower value; inhibition of EC80 agonist-evoked calcium signal; 390,000 compounds, 0.02% hits; in the data active means activity change below about -50%; inconclusive means about -30% to -50%; inactive means above about -30%;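 also: stimulus is agonist 54-4 at its EC80 concentration; % is scaled to controls: 0 for no effect and ±100 for the full control effect; the text of the record puts the active cut at -80%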
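Calcium fluorescence in TRPML1-DL cells induced overnight with Tet: a 110 s read after compound pin addition, then a 110 s antagonist read after challenge with 54-4 at 4 uM final (EC80).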
CtBP-E1A inh: qHTS Assay for Inhibitors of the CtBP/E1A Interaction; CtBP / adenovirus E1A interaction (AlphaScreen); AlphaScreen GST-E1A/His-CtBP binding, 1536-well; stronger effect = lower value; control for the full effect not named in the record; activity change, % (test concentration not listed); 340,000 compounds, 0.49% hits; AID 651724, 2012; in the data active means activity change below about -65%; inconclusive means about -30% to -65%; inactive means above about -30%; also: % is scaled to controls: 0 for no effect and ±100 for the full control effect
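Homogeneous bead-based format: GST-tagged E1A captured on glutathione donor beads, His-tagged CtBP on nickel acceptor beads; compounds precede bead addition by 2 h at 37 °C.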
Six1-Eya2 blk: qHTS Assay for Inhibitors of the Six1/Eya2 Interaction. Homeobox protein SIX1 (Homo sapiens) + Protein phosphatase EYA2 (Homo sapiens), …. 360,000 compounds, 0.56% hits. activity change, % (test concentration not listed). AlphaScreen GST-Six1/His-Eya2 binding, biochemical; stronger effect = lower value; control for the full effect not named in the record; in the data active = activity change below about -65%; inconclusive = about -30% to -65%; inactive = above about -30%; also: % is scaled to controls: 0 for no effect and ±100 for the full control effect
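AlphaScreen with GST-Six1 and His-Eya2 (5X mix: 250 nM and 500 nM), glutathione donor and nickel acceptor beads; buffer 50 mM Tris pH 8.0, 300 mM NaCl, 1 mM TCEP; 1 h at 37 C in the dark.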
* hit, by the source's call; ? = inconclusive; . = not tested or not shown.

SMILES	TRPV1 PAM	D2 potentiator	TRPML1 agonist	TRPML1 inh	CtBP-E1A inh	Six1-Eya2 blk
COc1ccccc1OCC#CCN1CCOCC1	2	-19	-0.1	1	-9	25
C[C@@H]1CN([C@@H](C)CO)C(=O)CCCn2nncc2CO[C@@H]1CN(C)C(=O)Oc1ccc2ccccc2c1	.	-1	-0.3	-21	2	0
CCCOc1ccccc1OCC(=O)N1CCN(CC(=O)N2CCOCC2)CC1	.	-11	-0.2	2	-5	8
CN(CCOc1ccc(C=C2C(=O)NC(=O)NC2=O)cc1)c1ccccn1	8	-5	1.0	5	.	-14
Clc1ccc2c(c1)C(c1ccccc1Cl)=NCc1nnc(N3CCN(CCOc4ccccc4)CC3)n1-2	9	-18	-0.3	-9	-11	-18
NP(=O)(OCCCCc1ccccc1)Oc1ccccc1Cl (stereo not drawn)	14	-11	1.7	-4	-1	-1
CN1C(=O)/C(=C\N2CCc3ccccc32)C(=O)NC1=S	18	-13	0.6	2	-12	-24
O=C1CN(C(=O)CN2CCCCC2)C(c2ccccc2)c2cc(Br)ccc2N1 (stereo not drawn)	-21	-15	2.4	27	-7	-1
N#CC(c1ccccc1)N1CCOCC1 (stereo not drawn)	?	-4	0.5	65	-7	-4
CCOc1ccc(NC(=O)C2C3c4ccccc4C(c4ccccc43)C2C(=O)O)cc1 (stereo not drawn)	11	-4	1.4	-14	.	-6
Clc1ccc(C(c2ccccc2)c2ncc[nH]2)cc1 (stereo not drawn)	?	8	0.9	7	-6	-8
CC1CN=C(NCc2ccc(F)cc2)S1 (stereo not drawn)	5	-5	26	-13	1	3
O=C(CCN1CC=C(c2ccccc2)CC1)NCc1ccccc1	.	-10	-0.5	-3	1	2
C=CCn1c(O)c(/C=C2/C=CC=N2)c(=O)[nH]c1=O	0	-9	0.4	10	.	3
Cc1ccc(-n2cc(CNC(C)Cc3cnccn3)c(-c3cccc(C)c3)n2)cc1 (stereo not drawn)	2	-18	-0.4	22	2	-6
COc1cccc(C(c2nnnn2-c2c(C)cccc2C)N2CCC(n3c(=O)[nH]c4ccccc43)CC2)c1OC (stereo not drawn)	.	-3	-0.1	.	-15	-18
Cc1nn(Cc2ccccc2Cl)c(C)c1C(=O)OCC(=O)N1CC(C)OC(C)C1 (stereo not drawn)	23	-10	0.2	18	1	1
CN1C(=O)NC(=O)C2(CCCC2)C1=O	.	1	-0.8	-4	4	2
C/C(=N\NC(=O)c1ccncc1)c1c(O)n(Cc2ccccc2)c(=O)[nH]c1=O	-1	3	2.5	-16	-19	-5
COc1ccc(C(=O)O/N=C(/C(N)=O)P(=O)(OC(C)C)OC(C)C)cc1	-9	-8	0.2	1	7	20
COc1ccc(OCC(=O)N2CCN(Cc3nc4cc([N+](=O)[O-])ccc4n3C)CC2)cc1	-1	7	3.2	6	1	-5
Cc1ccc(C(=O)C2(C)N(O)C(C)C(c3cccs3)=[N+]2[O-])cc1 (stereo not drawn)	-7	11	0.3	7	-1	0
C[C@H](NC(=O)N1C[C@H]2C[C@@H](C1)c1cccc(=O)n1C2)C(=O)Nc1ccccc1F	11	-8	.	.	-14	-21
CC1([N+](=O)[O-])COP(=O)(Nc2cccc(Br)c2)OC1 (stereo not drawn)	.	-10	-0.4	-8	7	0
N=c1sccn1Cc1ccc(Cl)cc1Cl	9	-7	-0.6	-10	18	-10
O=c1c2ccccc2nc(-c2ccccc2)n1-c1ccccn1	0	-9	-0.3	-24	7	3
CN(C)CCSCc1nnc2n1-c1ccc(Cl)cc1C(c1ccccc1Cl)=NC2	.	-8	1.3	?	-2	10
O=C(C[N+]12CCC(CC1)C(C(O)(c1ccccc1)c1ccccc1)C2)c1ccc(Br)cc1 (stereo not drawn)	3	-32	-1.1	13	.	-2
CCOP(=O)(C#CC(C)(C)C)C(C)(O)c1ccccc1 (stereo not drawn)	-5	1	1.3	-22	6	-1
CCCN(CC#CCOc1ccc(OC)cc1)CCC	-6	-18	-0.9	7	5	1

Full records, looked up by structure. Screens in order: TRPV1 PAM	D2 potentiator	TRPML1 agonist	TRPML1 inh	CtBP-E1A inh	Six1-Eya2 blk
`N=c1sccn1Cc1ccc(Cl)cc1Cl` in the list: 9	-7	-0.6	-10	18	-10
`Cc1ccc(C(=O)C2(C)N(O)C(C)C(c3cccs3)=[N+]2[O-])cc1` (stereo not drawn) in the list: -7	11	0.3	7	-1	0

(continued)
SMILES	TRPV1 PAM	D2 potentiator	TRPML1 agonist	TRPML1 inh	CtBP-E1A inh	Six1-Eya2 blk
O=C1NCN(c2ccccc2)C12CCN(C(c1nnnn1C1CCCCC1)C1CC1)CC2 (stereo not drawn)	.	-9	-0.3	.	2	-5
O=c1c2ccccc2nc(SCC2CCCCO2)n1-c1ccccc1 (stereo not drawn)	-19	-7	8.1	30	0	-5
CP(=O)(Nc1ccc(Cl)cc1)c1nc2c(s1)CCCC2 (stereo not drawn)	2	-12	0.2	2	-6	8
COc1ccc(-c2cc(C(=O)N3CCC4(CC3)OCCO4)c3ccccc3n2)cc1	-9	-19	0.0	-2	2	0
CC1CCC(C(C)C)C(OC(=O)Cn2c(COc3ccccc3)[n+](C)c3ccccc32)C1 (stereo not drawn)	5	-7	1.7	4	-8	-12
O=C1c2ccccc2-n2nncc2C2c3cc(Br)ccc3CCN12 (stereo not drawn)	.	-2	-0.1	.	1	-4
O=[N+]([O-])c1cc(F)c(N2CCCCC2)cc1Br	-24	-4	?	-7	-16	-12
Cc1nc2ccccc2c(=O)n1-c1ccncc1	24	-4	.	.	2	3
COc1ccccc1-n1c(/C=C/c2ccc(O)cc2)nc2ccccc2c1=O	-13	20	2.8	30	-9	10
O=C1CN=C(c2ccc(Br)cc2)c2oc3ccccc3c2N1	?	-8	0.9	-9	-3	1
O=C1NCN(c2ccccc2)C12CCN(C(CCc1ccccc1)c1nnnn1C1CCCC1)CC2 (stereo not drawn)	.	-9	-0.8	.	-10	-10
O=C(c1cccs1)N1C2CCC1CC(O)(c1cccnc1)C2 (stereo not drawn)	5	-6	-0.9	3	3	4
O=c1cccc2n1C[C@H]1C[C@@H]2CN2CCCC[C@@H]12	8	-1	1.5	18	-11	-2
COC(=O)C1=C(c2ccc(Cl)c(C(F)(F)F)c2)C[C@@H]2CC[C@H]1N2C(=O)NCCCOC(C)C	-12	-10	0.8	-9	.	-1
CCC1(O)CCC2C3CCC4=CC(=O)CCC4C3CCC21CC (stereo not drawn)	.	-8	-0.3	8	6	0
c1ccc(OCC2CO2)cc1 (stereo not drawn)	-10	-7	0.6	11	-1	0
O=[N+]([O-])c1ccc2c(c1)Cc1cc(O)ccc1-2	.	-7	-0.5	-3	-4	-4
O=[N+]([O-])c1[nH]cnc1Br	.	-9	-1.0	-5	13	8
COc1ccccc1N1CCN(Cc2cccc(Br)c2)CC1	0	-2	1.2	-15	0	-12
CC1(C)NC(=O)[C@H]2CCCN21	.	-3	-0.6	-9	.	1
Cc1cccc(C(=O)Nc2ccc(Cl)cc2C(=O)c2ccccc2)c1	-7	-10	4.9	0	-3	-3
Cc1cc(OCc2nn[nH]n2)c2c3c(c(=O)oc2c1)CCC3	15	-5	1.4	3	-12	-16
CCOC(=O)C(=CNc1ccc(C(O)(C(=O)OCC)C(F)(F)F)cc1C)C(=O)OCC (stereo not drawn)	-8	1	4.5	52	6	1
COc1ccc(CCNC2CCCCC2)cc1	17	-13	0.0	0	9	9
Cc1cccc(-n2c(=S)[nH]c3ccccc3c2=O)n1	-14	-4	0.4	-18	2	2
COc1ccccc1CCNC1CCCC(C)C1 (stereo not drawn)	4	-28	0.1	-3	10	8
Cn1cccc1/C=C1\C(=O)NC(=O)N(Cc2ccccc2Cl)C1=O	5	-4	0.8	17	-13	-14
COc1ccccc1C(=O)C1CCCN(Cc2cnc(C)s2)C1 (stereo not drawn)	5	-21	-0.3	15	-1	-1
Cc1cccc(N=Cc2c(O)n(-c3ccccc3C)c(=O)[nH]c2=O)c1	6	0	0.0	14	1	0
CCCCCCOC(=O)c1ccccc1N	13	0	0.6	-10	30	22
CC12Cc3cnoc3C=C1CCC1C2CCC2(C)C1CCC2(C)O (stereo not drawn)	.	7	1.3	63	2	2
O=C(OCCN1CCOCC1)C1(c2ccccc2)CCCC1	16	-6	-0.9	1	.	14
CCOC(=O)c1c(C)n(Cc2ccccc2)c2ccc(O)cc12	10	6	3.0	41	-10	-6
NC(=O)c1ccsc1NC(=O)COC(=O)Cc1ccccc1	8	-9	0.0	-19	.	5
CC(=O)Nc1cc(C(=O)N2CCC3(CC2)OCCO3)ccc1S(=O)(=O)c1ccc(C)cc1	-4	5	4.1	13	-1	9
CC(C)(C)C(=O)O[C@H]1CC[C@@]2(C)C(=CC(=O)C3C2CC[C@]2(C)C(=O)CCC32)C1 (stereo partly drawn)	.	-4	-0.5	-9	5	4
COc1ccc(C2SCC(=O)Nc3c2c(C)nn3C2CCOC(C)(C)C2)cc1OC (stereo not drawn)	0	-6	-0.8	1	13	9
COc1ccc(-n2c(SCCN(C)C)nc3ccccc3c2=O)cc1	7	-15	0.4	-7	3	14
CC1CCCCC1NC(=O)CNC(=S)N1CC2CC(C1)c1cccc(=O)n1C2 (stereo not drawn)	3	-8	0.3	-12	6	6
CC(C)(C)C(=O)O[C@H]1CC[C@@]2(C)C(=CC(=O)C3C2CC[C@]2(C)C(=O)[C@H](O)CC32)C1 (stereo partly drawn)	.	-1	1.8	-4	2	1
CCN(CC(=O)Nc1ccc(NC(C)=O)cc1)C(=O)CSC(c1ccccc1)c1ccccc1	11	-1	2.4	5	-25	-1
CCOC(=O)C1SC2(C(F)F)CC1(O)c1c(c(OC)c3occc3c1OC)O2 (stereo not drawn)	-9	-6	0.0	1	-8	-9
Cc1ccc(C(=O)c2cc(Br)ccc2N)cc1	14	-6	4.7	-14	1	-9

Some of the entries above in a different format.
Screens in order: TRPV1 PAM, D2 potentiator, TRPML1 agonist, TRPML1 inh, CtBP-E1A inh, Six1-Eya2 blk
> O=C(OCCN1CCOCC1)C1(c2ccccc2)CCCC1
    16, -6, -0.9, 1, ., 14
> COc1ccc(-n2c(SCCN(C)C)nc3ccccc3c2=O)cc1
    7, -15, 0.4, -7, 3, 14
> CCN(CC(=O)Nc1ccc(NC(C)=O)cc1)C(=O)CSC(c1ccccc1)c1ccccc1
    11, -1, 2.4, 5, -25, -1
> COc1ccc(C2SCC(=O)Nc3c2c(C)nn3C2CCOC(C)(C)C2)cc1OC (stereo not drawn)
    0, -6, -0.8, 1, 13, 9

3 entries already listed, sorted by formula weight, largest number first.
SMILES	TRPV1 PAM	D2 potentiator	TRPML1 agonist	TRPML1 inh	CtBP-E1A inh	Six1-Eya2 blk
COc1ccc(C(=O)O/N=C(/C(N)=O)P(=O)(OC(C)C)OC(C)C)cc1	-9	-8	0.2	1	7	20
CN(CCOc1ccc(C=C2C(=O)NC(=O)NC2=O)cc1)c1ccccn1	8	-5	1.0	5	.	-14
CCOC(=O)c1c(C)n(Cc2ccccc2)c2ccc(O)cc12	10	6	3.0	41	-10	-6

Bioassay records deposited in PubChem BioAssay by National Center for Advancing Translational Sciences (NCATS).

This is a subset (hit frequency here may not be typical).
